From PubChem
Rango complex inh: qHTS Assay for Inhibitors of Rango (Ran-regulated importin-beta cargo) - Importin beta complex formation | hit rate 0.031% among 340,000 | Rango CFP/YFP FRET sensor + importin beta, 45 min | Importin subunit beta-1 (Homo sapiens), Q14974 | Potency, µM (titrated, usually from 92.2 µM), inactives show at the top dose inhibition of complex formation; active = rising FRET ratio curve, often small or poorly fitted; inconclusive = mostly compound fluorescence or quenching in the first reads; inactive = flat curves in all reads;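 further: potency means the concentration at half of the fitted maximal effect; 0% = DMSO wells and 100% = buffer wells lacking importin beta; nearly all actives have a fitted effect of over 15% in size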
Target sequence (Q14974 whole entry, looked up): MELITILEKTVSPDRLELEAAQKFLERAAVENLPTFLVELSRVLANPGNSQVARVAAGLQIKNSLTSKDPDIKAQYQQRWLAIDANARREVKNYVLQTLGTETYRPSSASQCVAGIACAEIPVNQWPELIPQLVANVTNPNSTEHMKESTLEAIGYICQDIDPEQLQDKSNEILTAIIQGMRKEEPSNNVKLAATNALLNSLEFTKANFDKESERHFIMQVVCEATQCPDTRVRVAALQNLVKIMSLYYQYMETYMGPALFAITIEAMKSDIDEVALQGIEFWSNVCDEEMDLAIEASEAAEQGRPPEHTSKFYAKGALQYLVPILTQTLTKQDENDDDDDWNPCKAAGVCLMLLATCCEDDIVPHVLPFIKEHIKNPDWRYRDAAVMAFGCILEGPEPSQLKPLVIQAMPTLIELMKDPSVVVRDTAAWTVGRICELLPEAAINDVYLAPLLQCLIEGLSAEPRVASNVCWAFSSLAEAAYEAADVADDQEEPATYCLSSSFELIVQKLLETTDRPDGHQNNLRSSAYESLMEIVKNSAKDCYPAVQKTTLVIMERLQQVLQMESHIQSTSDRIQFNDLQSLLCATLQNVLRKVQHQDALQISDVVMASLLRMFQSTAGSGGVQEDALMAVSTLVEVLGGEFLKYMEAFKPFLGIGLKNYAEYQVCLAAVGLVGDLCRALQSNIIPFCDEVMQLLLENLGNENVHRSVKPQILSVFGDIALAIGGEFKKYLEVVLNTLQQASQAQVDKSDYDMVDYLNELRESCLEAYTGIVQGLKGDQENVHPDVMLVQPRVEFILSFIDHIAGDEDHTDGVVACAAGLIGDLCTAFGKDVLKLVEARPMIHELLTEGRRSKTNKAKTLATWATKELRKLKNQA
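FRET biosensor (snurportin 1 IBB flanked by EYFP and cerulean), 50 nM, with compound 5 min, then 0.125 microM importin beta in PBS, 1 mM DTT, 0.02% Tween-20, 0.1% BSA. CFP/YFP ratio read after 45 min at room temperature; pre-read flags interference.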
Rango release inh: qHTS Assay for Inhibitors of RanGTP induced Rango (Ran-regulated importin-beta cargo) - Importin beta complex dissociation; Snurportin-1 (Homo sapiens) + GTP-binding nuclear protein Ran (Homo sapiens) + Importin …; Potency, µM (top dose mostly 46.1 µM), without a hit: at the top dose activity change, negative = inhibition; hit rate 0.071% among 340,000; Biochemical FRET Rango-importin beta, RanGTP-induced dissociation; active means falling FRET ratio curve, often poorly fitted, with flat reads before Ran was added; inconclusive means other falling curves, or compound fluorescence or quenching; inactive means flat or rising ratio curve;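 further: potency means the concentration at half of the fitted maximal effect; % of control where 0% means no effect; nearly all actives have a fitted effect of over 45% in size; -100% = wells without RanGTP and RCC1; the record marks most hits as doubtful in a second field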
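Recombinant Rango FRET biosensor (EYFP–snurportin 1 IBB–cerulean CFP10) at 0.1 uM premixed with 0.25 uM importin beta in PBS, 1 mM DTT, 0.02% Tween-20, 0.1% BSA. Compound added 5 min; RanGTP-RCC1 (0.6 uM Ran, 2 mM GTP, 0.2 uM RCC1) then triggers release, read at 45 min.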
miR-21 reporter: qHTS Assay for Modulators of miRNAs and/orActivators of miR-21; HeLa miR-21 FLuc reporter, luciferase, 48 h; AID 2288, 2010; 340,000 tested, under 10 active; Potency, µM (titrated, usually from 38.3 µM), for the others: top-dose reporter change, positive = more light; active = well fitted rising curve with a large enough effect; inconclusive = small, poorly fitted or top-dose-only effect; inactive = no such curve, though single readings can be large or run the other way;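 further: % of control where 0% means no effect; miR-21 action dims this reporter so a rising signal means less miR-21 action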
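Compounds were titrated across several concentrations (up to approximately 40 uM) and incubated 48 hours with HeLa miR-21-FLuc reporter cells (miR-21 target sequence downstream of FLuc, endogenous miR-21). Readout was firefly luciferase luminescence after lytic detection reagent.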
GLA inh pH 4.5: qHTS Assay for Inhibitors of Human alpha-Galactosidase at pH 4.5; purified enzyme, 4-MU-alpha-Gal fluorescence, pH 4.5; activity change, negative = inhibition, % at 105 µM; 230,000 tested, under 10 active; Alpha-galactosidase A (Homo sapiens), P06280; inconclusive = small, poorly fitted or top-dose-only inhibition, or a rising curve; inactive = flat fitted curve, though single readings scatter; no compound was filed as active;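 further: 0% = full activity with enzyme and -100% = basal without enzyme; dose as in the result columns while the protocol names 77 µM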
An asterisk follows results filed as active; ? = inconclusive; nt = no result given; [ ] = remark or other dose. Some of the compounds tested. The share of hits here may be higher or lower than overall.

Values run as follows: Rango complex inh	Rango release inh	miR-21 reporter	GLA inh pH 4.5
> COc1ccc(OC)c(Nc2nc(N)nc(CCl)n2)c1
    -1.2%	-17%	?	-3
> CN(C)/C=C/C(=O)c1ccn(S(=O)(=O)c2ccccc2)c1
    ?	-27%	-2%	nt
> CCOC(=O)/C(C#N)=C/c1c(N2CCN(C)CC2)nc2ccccn2c1=O
    ?	?	-1%	nt
> Cn1cnnc1SC(C(=O)c1ccccc1)c1ccccc1 (stereo unspecified)
    1.8%	-9%	-6%	0
> S=C1Nc2ccccc2Sc2ccc(Cl)cc21
    -0.6%	2%	-12%	5
> C[C@@H]1CN([C@H](C)CO)C(=O)c2cc(NS(=O)(=O)c3cn(C)cn3)ccc2O[C@@H]1CN(C)S(C)(=O)=O
    -0.9%	-13%	nt	nt
> COc1ccc(C(=O)NC(=S)NNC(=O)CNC(=O)C2CCCCC2)cc1
    -0.4%	-3%	-23%	14
> CN(C)c1ccc(NC(=O)COC(=O)c2cc(Cl)ccc2[N+](=O)[O-])cc1
    -2.7%	-5%	-6%	4
> Oc1c(C=NCc2ccc(F)cc2)[nH]c2ccc(Br)c(Cl)c12
    nt	nt	-2%	4
> CCOC(=O)c1c(NC(=O)C2C3CCC(O3)C2C(=O)O)sc(C)c1-c1ccc(F)cc1 (stereo unspecified)
    -1.8%	2%	4%	-14
> NC(=O)CN1CCN(C(=O)NC2CCCCC2)CC1
    -0.3%	6%	-3%	6
> CC1CCN(C(=O)c2[nH]cnc2C(=O)NC2CCN(C(=O)OC(C)(C)C)CC2)CC1
    -0.6%	?	nt	nt
> COC(=O)CN1C(=O)c2cccc3cccc1c23
    ?	-25%	1%	nt
> Cc1n(CC(O)COCc2ccccc2)c2ccccc2[n+]1C (stereo unspecified)
    ?	-12%	1%	-4
> CC1CCN(c2nc3c(c(=O)n(C)c(=O)n3C)n2CCSc2nc3ccccc3o2)CC1
    nt	nt	-3%	0
> O=C(C1CCCC1)N1CCN(S(=O)(=O)c2ccc(Cl)cc2)CC1
    -2.1%	2%	-1%	nt
> Cc1ccc(NC(=S)NC(=O)c2ccc(-c3ccc(Cl)cc3)o2)c(O)c1
    -2.0%	-5%	-11%	7
> CCOC(=O)N1CCN(C(=O)CSc2ccc(Cl)cc2)CC1
    -3.6%	-7%	-26%	-1
> COC(=O)[C@]1(C)N[C@H](c2ccc(-c3ccc(F)cc3)cc2)[C@@H]2C(=O)N(C)C(=O)[C@@H]21
    -2.9%	-15%	nt	nt
> N#Cc1cc(C(=O)c2cc(F)ccc2O)cn(-c2nccs2)c1=O
    ?	?	6%	1
> Nn1cc(-c2ccccc2)nc1SCC(=O)NCC(F)(F)F
    -2.0%	4%	-12%	11
> COc1ccc(C2C(C(C)=O)=C(O)C(=O)N2c2nc3ccccc3s2)cc1OC (stereo unspecified)
    3.5%	-10%	-33%	-3[21.1 µM]
> Cc1ccc(C(=O)Nc2ccnc(-c3cccnc3)n2)cc1
    ?	-15%	-10%	-3
> NS(=O)(=O)c1ccc(NCc2cc(Cl)ccc2OCc2ccccc2F)cc1
    2.3%	1%	0%	-4
> CC(C)C(NS(=O)(=O)c1c(Cl)cccc1Cl)C(=O)OCC(=O)c1c[nH]c2ccccc12 (stereo unspecified)
    ?	-5%	?	-2
> Cn1c(SCC(=O)NC2CCCCC2)nnc1-c1ccc(N)cc1
    -0.9%	15%	-5%	-1
> C(=NN1CCCCCC1)c1ccc2c(c1)OCO2
    0.5%	-9%	nt	nt
> CC12Cc3ccc4ccccc4c3C=C1C[N+](C)(C)C2 (stereo unspecified)
    -0.5%	-3%	7%	1
> O=C(Nc1nc2ccc(Cl)cc2s1)[C@@H]1CCCN1C(=O)c1cccs1
    ?	-8%	-24%	2
> CC1CCCN(C(=O)CSc2nnc(-c3ccncc3)n2C)C1 (stereo unspecified)
    0.1%	4%	0%	2
> O=C(NCCCN1CCOCC1)C1(c2ccccc2)CCOCC1
    -2.8%	-1%	1%	-11
> Cc1ccc(Sc2c(O)c3ccccc3n(C)c2=O)cc1
    -2.1%	-13%	1%	2
> CCC(Oc1ccccc1)C(=O)N1CCN(C(=O)C(CC)Oc2ccccc2)CC1 (stereo unspecified)
    4.2%	2%	1%	-1
> CCCCn1c(CCC)nc([N+](=O)[O-])c1Sc1ccc(Cl)cn1
    -5.0%	2%	28%	-1
> Nc1cccc2[nH]c(C(F)(F)F)nc12
    -4.7%	-26%	-3%	-23
> Cc1nn(Cc2ccc(F)cc2)c(C)c1NC(=O)c1cccnc1Cl
    8.3%	0%	0%	1
> O=C(CSc1nc(-c2ccccc2)ns1)NCC1CCCO1 (stereo unspecified)
    -3.7%	13%	-41%	nt
> CCOc1ccc(NC(=O)c2ccccc2NS(=O)(=O)c2ccc(F)cc2)c([N+](=O)[O-])c1
    -1.0%	0%	10%	-7
> COc1ccccc1CNC(=O)C(C)n1cccc1C(=O)c1ccccc1 (stereo unspecified)
    5.4%	24%	0%	nt
> O=C(NCc1ccccc1)C1=C[C@H](C2CCCCC2)C[C@H](OCc2ccc(CO)cc2)O1
    ?	-9%	12%	-9
> CO/N=C/c1ccc(Sc2ccccc2)c([N+](=O)[O-])c1
    -3.2%	-2%	-14%	3
> CCn1c(SCC(=O)c2c(N)n(C)c(=O)n(C)c2=O)nc2sc(C)c(C)c2c1=O
    nt	nt	-2%	-5
> O=C(NCCc1c[nH]c2ccccc12)C(=O)NCC(c1cccnc1)N1CCN(c2ccccc2)CC1 (stereo unspecified)
    -0.6%	-12%	19%	?
> Nn1c(SCC(=O)N2CCOCC2)nnc1-c1ccco1
    3.4%	-1%	5%	3
> Cc1cc(=O)n2c3c(cccc13)CCC2
    0.1%	-3%	-3%	1

Complete entries, quoted from the list.
Results for CO/N=C/c1ccc(Sc2ccccc2)c([N+](=O)[O-])c1 : Rango complex inh = -3.2%; Rango release inh = -2%; miR-21 reporter = -14%; GLA inh pH 4.5 = 3
Results for Cc1ccc(Sc2c(O)c3ccccc3n(C)c2=O)cc1 : Rango complex inh = -2.1%; Rango release inh = -13%; miR-21 reporter = 1%; GLA inh pH 4.5 = 2

(cont.)
canonical_smiles | Rango complex inh | Rango release inh | miR-21 reporter | GLA inh pH 4.5
CCCC(=O)Nc1ccc(-c2nc3cc(C)c(C)cc3o2)c(O)c1 | -1.4% | 1% | -32% | 6
O=C(CSc1nnc2ccc(-c3ccc(F)cc3)nn12)N1CCCC1 | -1.4% | 0% | -7% | 0
CS(=O)(=O)c1ccc(Cl)c(NC(=O)CCNC(=O)c2ccco2)c1 | -1.1% | -10% | -1% | nt
CS(=O)(=O)N1CCC(C(=O)Nc2ccc(Cl)c(Cl)c2)CC1 | -2.2% | 24% | -7% | 4
O=C(Cn1nc(-c2cccc([N+](=O)[O-])c2)c2ccccc2c1=O)NCC1CCCO1 (stereo unspecified) | 0.0% | 15% | -7% | 0
CCc1nnc(NC(=O)c2cccc(NC(=O)C(C)C)c2)s1 | 0.2% | 27% | -42% | 3
CCOc1ccccc1CNS(=O)(=O)c1ccc2c(c1)oc(=O)n2C | 0.1% | ? | -5% | 5
Cn1cc(CNC(=O)c2ccc(OC3CCN(Cc4ccccn4)CC3)cc2)cn1 | -4.1% | -2% | 3% | nt
CCCc1nc2sc3c(=O)n(N)cnc3c2c2c1COC(C)(C)C2 | nt | nt | -4% | -11
O=C(COc1ccc(C(=S)N2CCOCC2)cc1)Nc1ccccc1C(F)(F)F | 0.2% | 0% | 5% | -12
O=C1NC(c2ccccn2)Nc2sc3c(c21)CCC3 (stereo unspecified) | ? | -11% | -19% | -17
COCCCNC(=O)c1ccc([N+](=O)[O-])cc1 | -1.6% | 11% | 2% | 2
COc1ccc(CNC(=O)CCNC(=O)c2ccco2)cc1OC | 2.0% | 11% | nt | nt
COC(=O)c1c(NC(=O)c2ccco2)sc(C(=O)Nc2ccc(F)cc2)c1C | -1.2% | -6% | -39% | -4
Cc1ccc(C)c(N2CCN(S(=O)(=O)c3c(C)[nH]c(C)c3C(=O)N3CCCC3)CC2)c1 | 0.3% | ? | 5% | nt
COCCn1nnnc1C(c1ccc(OC)c(OC)c1)N1CCN(C(=O)c2ccco2)CC1 (stereo unspecified) | 0.9% | -2% | 0% | nt
O=C(O)c1ccc(N/N=C/c2ccc(-c3ccccc3Cl)o2)cc1 | ? | ? | -65% | 0
Cc1cc(NC(=O)CCCC(=O)Nc2ccc(F)cc2)no1 | -1.2% | 5% | 2% | -4
O=C(CCC1CCCN(C(=O)C2=CCCCC2)C1)N1CCN(c2ccccn2)CC1 (stereo unspecified) | -1.2% | 20% | -2% | 7
NC(=O)C1(Nc2ccc(-c3ccc(Br)cc3)cc2)CCCC1 | -5.7% | 7% | nt | nt
CCCN(CCC)S(=O)(=O)c1cccc(C(=O)N=c2sccn2C)c1 | -5.2% | -11% | 16% | nt
CC(CC(=O)Nc1ccc(F)c([N+](=O)[O-])c1)c1ccccc1 (stereo unspecified) | 1.4% | 1% | 0% | 2
O=S(=O)(Cc1ccc(Cl)cc1)N1CCN(c2ncccn2)CC1 | 0.1% | 10% | -3% | nt
CN(C)c1ccc(/C=N/NC(=O)c2ccnn2C)cc1 | -2.1% | -10% | -59% | 3
O=c1cc(-c2ccccc2)oc2cc(O)ccc12 | ? | ? | nt | nt
O=C(Nc1ccc2nc3n(c(=O)c2c1)CCCC3)c1ccccc1F | -2.6% | 5% | -48% | nt
COc1ccc(C(=O)Nc2nnc(SCC(=O)Nc3ccc(NC(C)=O)cc3)s2)c(OC)c1 | 0.0% | 1% | -60% | nt
O=C(c1cn(-c2ccccc2)nc1-c1ccccc1)n1nnc2ccccc21 | 2.0% | 8% | -6% | 8
COc1ccccc1N(C)S(=O)(=O)c1ccc(C(=O)OCC(N)=O)cc1 | 0.0% | -3% | 0% | 10
COc1ccc(C(=O)NCC(=O)OCC(=O)Nc2c(C)n(C)n(-c3ccccc3)c2=O)cc1 | 0.2% | -5% | -1% | 2
CCCC1Cc2c(sc(NC(=S)NC(=O)c3ccccc3)c2C#N)CO1 (stereo unspecified) | nt | nt | -10% | 1
COC(=O)c1cc(NC(=O)CSc2nc(C)cc(=O)[nH]2)cc(C(=O)OC)c1 | -0.7% | 9% | -2% | -7
CCOC(=O)C1CCN(C(=O)C(=O)N2CCC(C(=O)OCC)CC2)CC1 | -1.1% | 18% | 0% | 4
CCC1Oc2ccccc2N(CC(=O)N2CCOCC2)C1=O (stereo unspecified) | 1.0% | 3% | 1% | nt
Oc1ccccc1N1CCN(CC(O)COCc2ccccc2Cl)CC1 (stereo unspecified) | 0.5% | ? | -6% | -7
Cc1cc(NC(=O)c2cc(-c3cccs3)on2)no1 | 0.7% | -1% | -5% | -1
CCCCNC(=S)N1CCN(C(c2ccccc2)c2ccccc2)CC1 | 2.7% | 16% | ? | -13

Given with each value named: part of the list above.
> Cc1cc(NC(=O)c2cc(-c3cccs3)on2)no1
  Rango complex inh = 0.7%	Rango release inh = -1%	miR-21 reporter = -5%	GLA inh pH 4.5 = -1
> CCCCNC(=S)N1CCN(C(c2ccccc2)c2ccccc2)CC1
  Rango complex inh = 2.7%	Rango release inh = 16%	miR-21 reporter = ?	GLA inh pH 4.5 = -13
